# UCH37 DUB inh = blocks the human deubiquitinase UCH37 | 330,000 tested, 0.33% active | inhibition, % (test concentration not listed) | AID 588478 | purified proteasome/UCH37, Ub-AMC cleavage fluorescence;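 active means mean of two replicates above 20%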;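 further: 0% = compound-free wells with enzyme and 100% = wells lacking proteasome; stock transfer was 100 nL into about 20 µL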
# Target sequence (Q9Y5K5 whole entry, looked up): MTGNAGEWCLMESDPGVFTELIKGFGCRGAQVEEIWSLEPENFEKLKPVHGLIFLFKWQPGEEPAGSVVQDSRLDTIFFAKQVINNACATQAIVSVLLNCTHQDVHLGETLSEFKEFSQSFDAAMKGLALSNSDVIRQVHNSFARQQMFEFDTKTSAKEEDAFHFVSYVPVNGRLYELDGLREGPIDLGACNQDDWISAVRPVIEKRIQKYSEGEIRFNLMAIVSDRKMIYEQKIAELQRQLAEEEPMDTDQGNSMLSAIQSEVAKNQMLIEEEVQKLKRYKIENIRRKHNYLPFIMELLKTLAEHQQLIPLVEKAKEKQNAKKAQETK
#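 Material: human UCH37 enzyme supplied as purified proteasome complex / Amount: 0.15 nM proteasome as dispensed / Buffer or medium: pH 7.4 Tris-HCl (50 mM) with ovalbumin, ATP-MgCl2, DTT / Times: preincubation 30 min, reaction 25 min, room temperature / Technique: AMC fluorescence from Ub-AMC cleavage, excitation 355 nm, emission 460 nm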
# FGF22 binding = FGF22 (human) thermal shift binding | recombinant FGF22 thermal shift, SYPRO orange fluorescence; percent of sucrose octasulfate shift, DMSO zero | calls only at 9.99 µM | 340,000 tested, 1.5% active;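 active means melting point raised past a set limit in the mean and every replicate; inconclusive means no clear call; three in four hits are not shown here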
# Target sequence (Q9HCT0 whole entry, looked up): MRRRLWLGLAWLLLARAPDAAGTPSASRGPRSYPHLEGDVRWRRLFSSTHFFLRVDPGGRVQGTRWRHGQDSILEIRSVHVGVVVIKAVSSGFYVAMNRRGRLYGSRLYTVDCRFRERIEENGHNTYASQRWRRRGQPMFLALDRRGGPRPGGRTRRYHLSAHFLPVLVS
# B2AR ag = activates human beta-2 adrenergic receptor causing internalization; 340,000 tested, 0.43% active; AID 504454; response, % (concentration not given with the values); P07550; Am2.2-beta2AR cells, FAP receptor internalization, flow cytometry; reference of the scale not given here;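 active means response above a set limit, near 3 SD of response in nonfluorescent compounds, cut at about 42% in these data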;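 further: stock transfer was 100 nL into about 11 µL; a reference agonist was the positive control; negative values mostly stem from fluorescent compounds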
# HNF4A DNA FP = change in binding of human HNF4 alpha to DNA; 360,000 tested, 0.3% active; HNF4a-FITC DNA binding, fluorescence polarization, 1 h; activity change, % at 10 µM; P41235; AID 1224865; in the data active means activity change above about 30%, passing the limit was not always enough;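 further: controls were the assay level and a saturating level of protein; the project sought stronger binding though the title names inhibitors; some compounds called inactive have numbers as strong as hits; positive values seem to mean higher polarization but the record does not say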
# Target sequence (P41235 whole entry, looked up): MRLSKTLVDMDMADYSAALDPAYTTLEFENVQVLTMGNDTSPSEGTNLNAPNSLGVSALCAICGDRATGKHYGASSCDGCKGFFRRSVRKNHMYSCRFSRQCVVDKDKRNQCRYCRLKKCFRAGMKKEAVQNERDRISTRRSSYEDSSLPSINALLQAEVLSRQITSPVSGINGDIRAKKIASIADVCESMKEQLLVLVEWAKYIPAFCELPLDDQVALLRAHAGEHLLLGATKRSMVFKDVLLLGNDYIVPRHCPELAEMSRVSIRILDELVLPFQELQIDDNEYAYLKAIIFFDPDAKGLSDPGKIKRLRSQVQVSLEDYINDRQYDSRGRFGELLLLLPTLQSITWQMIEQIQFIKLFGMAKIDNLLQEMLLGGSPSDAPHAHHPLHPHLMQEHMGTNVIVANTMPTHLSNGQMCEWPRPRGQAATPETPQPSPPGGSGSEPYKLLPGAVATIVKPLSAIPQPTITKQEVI
# rRNA inh HTS = inhibitors of bacterial rRNA selective over humanized ribosomes; E. coli WT GFP vs humanized-ribosome RFP mutants, fluorescence, 24 h; active compounds read low; DMSO median 0, no signal -100; GFP signal change (wild-type ribosome), % (concentration not given with the values); 350,000 tested, 1.6% active; AID 720706;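 active means significant combined selectivity score with lowered wild-type GFP, culture density cut under 30%, mutant RFP and density less affected; inactive means any of these conditions unmet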; further: one replicate is shown; some compounds called inactive have numbers as strong as hits
# ALR inh = blocks human ALR sulfhydryl oxidase activity; 290,000 tested, 3.8% active; inhibition, % (no concentration beside the values); purified ALR, DTT oxidation, H2O2 HRP-luminol luminescence; P55789;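 active means mean and each replicate at 75% or more; inconclusive means only one of the two met; inactive means neither met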;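 further: stock transfer was 7.5 nL into about 7.5 µL; 0% = neutral wells and 100% = wells with inactivated enzyme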
# Ecoli growth = blocks Escherichia coli growth; OD600, 23 h; active compounds read low; OD600 absorbance (no concentration beside the values); 330,000 tested, 0.21% active; AID 1053175;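 active means OD600 absorbance below the run mean of sample wells minus 3.6 SD, in any replicate, cut at about 0.56 in these data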;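 further: stock transfer was 300 nL into about 60 µL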
# rRNA inh HTS OD600 = recorded beside rRNA inh HTS, whose call it bears; OD600 change, %; measured here: OD600 growth;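 optical density of the mix in the first replicate; 0 = DMSO median and -100 = no signal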
# rRNA inh HTS RFP = further read-out of rRNA inh HTS, marked with its call; RFP signal change, %; measured here: RFP humanized mutant strains;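 first replicate; 0 = DMSO median and -100 = no signal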
# Numbers without * were called inactive; i = inactive; ? = inconclusive; / = no result given; + = active, no number; & = joins results of further samples; ! = repeats disagree.
SMILES,UCH37 DUB inh,FGF22 binding,B2AR ag,HNF4A DNA FP,rRNA inh HTS,rRNA inh HTS OD600,rRNA inh HTS RFP,ALR inh,Ecoli growth
Cc1ccc(N(CC(=O)NC2CCCCC2)C(=O)CNC(=O)c2ccco2)cc1C,4.0,i,-6,2.8,-3,-2,4.3,1,0.67
Cc1ccccc1-n1c(SCc2cccc(F)c2)nc2[nH]ncc2c1=O,2.4,/,-8,-0.5,/,/,/,/,0.7
O=C(NCC1CCCN1S(=O)(=O)c1cccs1)C(=O)Nc1ccc(F)cc1F (configuration not stated),-3.1,i,-11,-3.9,-2,1,3.8,-13,0.62
CCCc1cc(=O)oc2c(CN(CC)CC)c(O)c(Cl)cc12,i,i,-6,0.4,4,-1,2.8,6,0.69
CN(C)S(=O)(=O)c1ccc(C(=O)NCCN=C2NS(=O)(=O)c3ccccc32)cc1,0.3,i,-3,-1.0,8,4,0.3,-2,0.7
C[C@@H](CO)NC(=O)c1ccc2c3n(nc2c1)-c1ccccc1CO3,-12,i,-4,-1.5,-10,-7,0.9,-7,/
C=CCOc1ccc(/C=C/C(=O)N2CCCN(S(=O)(=O)c3c(C)noc3C)CC2)cc1,2.1,/,-4,-5.1,-8,-14,4.8,/,0.7
COc1ccc(/C=C2\SC(=O)N(CCNC(=O)C3CC4C=CC3C4)C2=O)cc1 (configuration not stated),7.0,i,-5,-2.8,-3,-5,3.4,-15,0.68
Cc1c(/C(O)=C2/C(=O)C(=O)N(Cc3cccnc3)C2c2ccccn2)cnn1-c1ccccc1 (configuration not stated),11,/,0,1.0,25,10,0.0,-18,0.68
CC(Cc1ccccc1)N/C=C1\CC(=O)NC1=O (configuration not stated),1.5,/,0,1.5,/,/,/,-2,0.8
COc1ccc(/C=C2/C(=O)N(c3ccccc3)N=C2C)cc1Br,9.0,i,76*,8.2,7,3,-2.4,6,0.66
CC1CCN(Cc2c(C(=O)N/N=C/c3ccc(C(F)(F)F)cc3)nnn2-c2nonc2N)CC1,/,i,4,-1.9,3,10,-0.1,-6,/
COc1ccc(NC(=S)SC)cc1OC,6.8,i,9,0.2,-1,-4,0.7,10,0.69
COc1ccc(NC(=O)CC23CC4CC(CC(C4)C2)C3)cn1,3.4,/,-4,0.8,-3,-8,0.1,-6,0.69
Cc1ccc(-n2c(Cc3cccn3C)nnc2SCC(=O)N2CCN(c3ccccc3)CC2)cc1,1.3,/,3,1.4,/,/,/,8,0.66
CCOCCCNC(=O)C1CCN(S(=O)(=O)N2CC(C)CC(C)C2)CC1 (configuration not stated),2.0,/,1,-3.6,/,/,/,-3,0.64
CCC(=O)N1Cc2cc(C(=O)NCCOC)nc(-c3cccc(-c4ccc(C#N)cc4)c3)c2[C@H]1CCO,/,i,/,6.6,-43&-5,-62&-11,-1.6&-0.1,/,/
COCCNC(=O)c1onc(CSc2ccccc2F)c1C(=O)O,2.9,i,3,-2.2,-4,2,3.9,44,0.72
COC1CCCN(C(=O)c2ccc(OC3CCN(S(=O)(=O)N(C)C)CC3)cc2)C1 (configuration not stated),-0.2,i,7,-1.6,6,8,1.9,1,0.64
CNC(=O)c1ccccc1S(=O)(=O)c1ccccc1C#N,4.7,/,-2,-0.1,/,/,/,62,0.74
COc1ccc(C2C3=C(CC(C)(C)CC3=O)N(C)C3=C2C(=O)CC(C)(C)C3)cc1,/,i,-3,-3.4,2,-5,-1.4,-9,/
CSCC[C@H](NC(=O)Nc1cccc(C(F)(F)F)c1)C(=O)O,3.3,/,-5,-2.1,/,/,/,0,/
COc1cc(C2Oc3ccccc3C=C2[N+](=O)[O-])cc(OC)c1OC (configuration not stated),3.8,i,31,-4.0,-11,-5,-1.4,/,0.65
CCOC(=O)CN(C(=O)Cn1nnc2ccccc21)C(C(=O)NCCOC)c1ccccc1 (configuration not stated),0.9,/,-15,-0.8,/,/,/,12,0.73
O=C(Nc1cc(F)ccc1F)c1ccc2c(=O)n3c(nc2c1)CCC3,/,i,/,4.1,-2,-1,1.2,/,/
SMILES,UCH37 DUB inh,FGF22 binding,B2AR ag,HNF4A DNA FP,rRNA inh HTS,rRNA inh HTS OD600,rRNA inh HTS RFP,ALR inh,Ecoli growth
COc1cc(C(=O)N2CCN(S(=O)(=O)c3cccs3)CC2)cc(OC)c1C,3.3,i,1,-0.7,0,-13,-1.1,/,0.67
COc1ccc(-c2cc(C(=O)Nc3c(C)nn(Cc4ccccc4Cl)c3C)no2)cc1,1.1,/,2,-1.8,/,/,/,-3,0.7
COc1ccc(CS(=O)(=O)/C(Cl)=C(/Cl)C(=O)Nc2ccc(OC)nc2)cc1,4.9,/,48*,2.9,/,/,/,98*,0.77
COc1cccc(C(=O)N2CCOCC2)c1OC,2.4,i,-1,6.6,-2,4,-1.7,-15,0.73
COc1cc(NC(=O)c2csc(N)n2)cc(C(=O)Nc2cccc(C(F)(F)F)c2)c1,-1.0,+!,1,0.1&6.0,-48&0,-62&0,13&-9.2,-5,0.67
Cn1c(=O)c(=O)n(C)c2cc(S(=O)(=O)CCC(=O)NCc3ccccc3)ccc21,3.7,i,3,-5.0,4,5,-9.8,99*,0.66
O=C(O)c1cc([N+](=O)[O-])c(NCc2cccnc2)c([N+](=O)[O-])c1,7.7,i,-1,1.2,5,9,-7.3,-26,0.67
O=C(c1ccc([N+](=O)[O-])s1)N1CCN(c2ccc(C(F)(F)F)cn2)CC1,0.4,i,84*,-1.7,0,2,-3.4,-25,0.68
O=C(CSc1ccc(Cl)cc1)NCC1CCCO1 (configuration not stated),2.9,/,-3,-2.3,/,/,/,-1,0.79
COc1ccc(C2C3=C(CC(C)(C)CC3=O)Nc3cc4c(cc32)OCO4)cc1 (configuration not stated),-159,/,-2,0.5,/,/,/,?,0.67
CC(=O)Oc1cc2c(cc1Cl)C(c1cccs1)CC1(CC(C)(C)NC(=S)N1)O2 (configuration not stated),6.6,i,6,-1.3,-2,-3,1.0,-12,0.73
O=C(OCCOCCN=C1NS(=O)(=O)c2ccccc21)C1CC(=O)N(c2ccccc2)C1 (configuration not stated),-1.4,/,14,-0.8,/,/,/,2,0.78
COc1ccc(C(=O)c2ccccc2)c(OCC(=O)NC2CC2)c1,5.6,i,-4,-1.9,10,4,3.6,-3,0.72
O=C(O)CC12CC3CC(C1)CC(n1ncc(N4CCC5(CC4)OCCO5)c(Cl)c1=O)(C3)C2,12,/,2,-0.6,11,7,-5.1,-7,0.73
O=C(CC(c1ccccc1)C1CCCCC1=O)c1ccco1 (configuration not stated),2.4,/,2,0.6,/,/,/,4,0.72
Cc1nc(SCC(=O)N(CC(C)C)C2CCS(=O)(=O)C2)c2c(C)c(C)sc2n1 (configuration not stated),1.9,i,-8,-1.1,-26,-30,-1.2,-5,0.71
COC(=O)c1cccc(NC(=O)c2cnn(C)c2)c1,4.0,i,-3,1.5,9,-2,0.9,17,0.69
Cc1nnc(SC(C)C)n(N)c1=O,2.0,i,7,2.6,8,19,-0.5,-5,0.72
Cc1ccc(-c2nn(CCC(=O)O)cc2/C=C\C(=O)c2ccc(Br)cc2)cc1,8.4,+,5,0.5,-60,-77,-22,97*,0.65
CCOC(=O)C1=C(CNCc2ccc(C)cc2)NC(=O)NC1c1cc(C)ccc1C (configuration not stated),4.1,i,-6,10,-27,-29,28,-4,0.64
COc1ccc(-c2csc(Cc3nc(O)cs3)n2)cc1,-33,i,19,3.1,-4,-7,7.8,87*,0.65
COc1ccc(/C=C/C(=O)OCC(=O)N2c3ccccc3CC2C)cc1OC (configuration not stated),/,i,/,-1.4,9,19,-0.5,/,/
COC(=O)c1ccc(SCc2ccccc2)nc1,6.0,i,-2,-0.7,4,-6,-3.5,-2,0.67
CCc1n[nH]c(=O)n1Cn1c(CC)n[nH]c1=O,4.5,/,-6,-2.9,/,/,/,-6,0.77
CCn1c2ccccc2c2cc(/C=N/NC(=O)c3ccccc3C)ccc21,/,i,18,-1.8,8,6,-1.2,5,/
SMILES,UCH37 DUB inh,FGF22 binding,B2AR ag,HNF4A DNA FP,rRNA inh HTS,rRNA inh HTS OD600,rRNA inh HTS RFP,ALR inh,Ecoli growth
CCOC(=O)C(NC(C)=O)(Nc1ccc(S(=O)(=O)Nc2cc(C)nc(C)n2)cc1)C(F)(F)F (configuration not stated),0.9,/,4,7.1,/,/,/,/,0.7
CC(C)(C)OC(=O)N1CCC(NC(=O)c2nc[nH]c2C(=O)NCC(=O)OCc2ccccc2)CC1,1.6,i,16,-2.2,-13,-24,19,/,0.62
CCNC(=O)N1CCN(C(=O)NCC)CC1,1.2,i,-2,2.0,14,9,4.2,1,0.71
COc1cccc(C(=O)NCCSCc2ccccc2Cl)c1,-0.4,i,7,1.6,-27,-45,-9.0,-3,0.61
O=C(O)/C=C/c1cccc(NC(=O)c2ccc(Cl)cc2)c1,7.1,i,3,1.5,-11,-11,-5.6,1,0.72
O=C1NCCN1Cc1ccc(F)cc1,-1.1,/,-2,0.6,/,/,/,-6,0.74
COc1cccc(/C(O)=C2/C(=O)C(=O)N(CCN3CCOCC3)C2c2cccnc2)c1 (configuration not stated),11,/,3,0.8,/,/,/,0,0.68
Cc1ccc(OCC(=O)N2CCc3ccccc3C2)c(C)c1,0.4,i,-5,-0.7,-24,-32,-4.4,-6,0.65
O=C(CCc1nnc(CCCCc2ccccc2)o1)NCCN1CCOC1=O,2.0,i,-10,-0.5,12,1,0.3,-19,0.68
Cc1nn(-c2ccccc2)c(C)c1NC(=O)COC(=O)Cc1ccccc1F,2.4,i,-7,1.2,3,12,0.8,2,0.66
Cc1onc(-c2ccccc2)c1C(=O)N1CCCc2ccccc21,-1.2,/,3,-1.3,/,/,/,-6,0.69
Cc1oc2cc3oc(=O)c(CC(=O)N[C@H](C(=O)N[C@@H](C(=O)O)c4ccccc4)C(C)C)c(C)c3cc2c1C,-37,i,8,0.5,/,/,/,38,0.73
Cc1ccc(S(=O)(=O)N2C(=O)CCC2C(=O)NCc2ccco2)cc1 (configuration not stated),4.7,/,4,5.8,/,/,/,-8,0.68
COc1cc(NC(=O)COC(C)=O)cc(OC)c1OC,4.3,/,2,4.4,13,7,0.7,-16,0.71
COc1ccccc1N(C)S(=O)(=O)c1ccc(C(=O)Nc2nccs2)cc1,1.7,i,8,1.7,-33,-35,-8.2,-9,0.67
CC(=O)c1cccc(S(=O)(=O)N2CCC(n3nnc4cc(F)ccc43)CC2)c1,1.6,/,2,3.1,/,/,/,-2,0.73
O=c1[nH]cnc(O)c1C(c1ccc2c(c1)OCO2)c1c(O)nc[nH]c1=O,2.1,/,1,-4.5,6,5,1.7,-3,0.66
N#C/C(=C/c1ccc(-c2ccc(Br)cc2)o1)C(=O)NC1CCCCC1,-16,i,12,1.8,-5,3,-3.0,0,0.73
Cn1c(N)cc(=O)n(Cc2ccccc2)c1=O,0.7,i,-12,-3.1,-8,3,2.5,99*,0.71

# Given as labelled records: 2 of the compounds above
> CCOC(=O)C(NC(C)=O)(Nc1ccc(S(=O)(=O)Nc2cc(C)nc(C)n2)cc1)C(F)(F)F (configuration not stated)
- UCH37 DUB inh: 0.9
- FGF22 binding: /
- B2AR ag: 4
- HNF4A DNA FP: 7.1
- rRNA inh HTS: /
- rRNA inh HTS OD600: /
- rRNA inh HTS RFP: /
- ALR inh: /
- Ecoli growth: 0.7

> CC(C)(C)OC(=O)N1CCC(NC(=O)c2nc[nH]c2C(=O)NCC(=O)OCc2ccccc2)CC1
- UCH37 DUB inh: 1.6
- FGF22 binding: i
- B2AR ag: 16
- HNF4A DNA FP: -2.2
- rRNA inh HTS: -13
- rRNA inh HTS OD600: -24
- rRNA inh HTS RFP: 19
- ALR inh: /
- Ecoli growth: 0.62

# Bioassay records deposited in PubChem by several laboratories.

# The list is partial. The share of hits here may be higher or lower than overall.
